From PubChem
UUG fidelity: yeast start codon fidelity modulation | activity score, % at 18.7 µM | AID 602363 | S. cerevisiae UUG-firefly luciferase reporter, luminescence/redox ratio | actives 0.13% (n = 350,000);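 active means replicate mean at a twofold rise or more, about +100% in these data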;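 further: firefly luciferase made from a UUG start codon reports start codon fidelity; reporter light over untreated wells divided by growth signal over untreated wells; some hits fall short of that in this replicate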
HIV Env fusion: HIV envelope-mediated fusion inhibition; HeLa-JRFL Env/CEM21 cell fusion, luciferase; inhibition, % at 12.3 µM; actives 1.1% (n = 360,000); AID 651610;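 active means mean replicate inhibition score of at least 50 and every replicate individually at or above 50; inconclusive means only one of the two criteria met; inactive means mean below 50 and not all replicates reaching 50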;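 further: 0% = plate neutral controls and 100% = maraviroc near 300 nM; one replicate is shown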
* hit, by the source's call; u = inconclusive; & = joins results of further samples; [ ] = remark or other dose. A portion of the library; rates above refer to the full screens.

item | UUG fidelity | HIV Env fusion | compound
1 | -29 | -2[16.7 µM] | COc1cccc(C#Cc2ccc3c(c2)O[C@@H](CN(C)S(=O)(=O)c2ccccc2F)[C@@H](C)CN([C@@H](C)CO)S3(=O)=O)c1
2 | 0 | 15[16.7 µM] | C[C@H]1CN([C@@H](C)CO)C(=O)Cc2cc(NC(=O)c3ccncc3)ccc2O[C@H]1CN(C)S(C)(=O)=O
3 | 0 | 21[16.7 µM] | C[C@H]1CN([C@@H](C)CO)C(=O)c2cc(/C=C/c3ccccc3)cnc2O[C@H]1CN(C)Cc1ccc2c(c1)OCO2
4 | -2 | u | CO[C@H]1CN(C)C(=O)c2ccc(NS(C)(=O)=O)cc2OC[C@@H](C)N(CCC(F)(F)F)C[C@H]1C
5 | 5 | -18 | C[C@H](CO)N1C[C@H](C)[C@H](CN(C)S(=O)(=O)c2cccs2)Oc2ncc(Br)cc2C1=O
6 | 5 | 25[16.7 µM] | CNC[C@@H]1Oc2ccc(NS(=O)(=O)c3cn(C)cn3)cc2C(=O)N([C@H](C)CO)C[C@H]1C
7 | -7 | -15[16.7 µM] | CCC(=O)N[C@@H]1CC[C@H](CCn2cc(CN(C)C)nn2)O[C@@H]1CO
8 | 7 | -3[16.7 µM] | Cc1ccc(S(=O)(=O)N[C@@H]2C=C[C@@H](CC(=O)N3CCc4ccccc4C3)O[C@H]2CO)cc1
9 | 10 | 8[16.7 µM] | C/C=C/c1ccc2c(c1)O[C@H](CN(C)C)[C@@H](C)CN([C@H](C)CO)S2(=O)=O
10 | -22 | -6[16.7 µM] | O=C(C[C@@H]1CC[C@H](NC(=O)c2cccc(F)c2)[C@@H](CO)O1)NCc1ccccc1
11 | 19 | -9[16.7 µM] | C[C@@H]1CCCCO[C@H](CN(C)Cc2ccccc2)[C@H](C)CN([C@@H](C)CO)C(=O)c2cc(NC(=O)C3CCCCC3)ccc2O1
12 | -7 | -3[16.7 µM] | CCNC(=O)C[C@@H]1C=C[C@H](NS(=O)(=O)c2ccc(F)cc2)[C@@H](CO)O1
13 | 4 | 1[16.7 µM] | C[C@@H]1CN([C@@H](C)CO)C(=O)c2cc(NC(=O)Nc3ccc(F)cc3)ccc2O[C@@H]1CN(C)S(=O)(=O)c1cn(C)cn1
14 | 15 | 1[16.7 µM] | COc1cccc(NC(=O)Nc2ccc3c(c2)C(=O)N(C)C[C@H](OC)[C@H](C)CN[C@H](C)CO3)c1
15 | 1 | 6[16.7 µM] | CCNC(=O)C[C@@H]1CC[C@H]2[C@H](COc3ccc(NC(=O)Nc4cccc(Cl)c4)cc3C(=O)N2C)O1
16 | -7 | -7[16.7 µM] | C[C@H](CO)N1C[C@H](C)[C@H](CN(C)C(=O)CN(C)C)Oc2ncc(C#Cc3ccncc3)cc2C1=O
17 | 22 | -3[16.7 µM] | C[C@H]1CN([C@@H](C)CO)C(=O)c2cccc(NC(=O)c3ccc(-c4nccs4)cc3)c2O[C@H]1CN(C)C(=O)Nc1ccccc1
18 | 10 | 18[16.7 µM] | C[C@H]1CCCCO[C@@H](CN(C)Cc2ccc(C(=O)O)cc2)[C@@H](C)CN([C@@H](C)CO)C(=O)c2cc(NC(=O)NC3CCCCC3)ccc2O1
19 | 0 | 0 | Cc1ccc(S(=O)(=O)N2CCOCC2)cc1C(=O)N1CCN(c2ncccn2)CC1
20 | 11 | 4[16.7 µM] | Cc1ccc(S(=O)(=O)Nc2ccc3c(c2)C(=O)N([C@@H](C)CO)C[C@@H](C)[C@H](CN(C)CC2CC2)OCCCC[C@H](C)O3)cc1
21 | -8 | 0[16.7 µM] | C[C@H]1CCCCO[C@H](CN(C)C(=O)NC2CCCCC2)[C@@H](C)CN([C@@H](C)CO)C(=O)c2cc(NC(=O)c3ccncc3)ccc2O1
22 | 5 | -15[16.7 µM] | COCC#Cc1ccc2c(c1)O[C@@H](CN(C)C(=O)NC(C)C)[C@@H](C)CN([C@H](C)CO)S2(=O)=O
23 | -8 | -13[16.7 µM] | C[C@H](CO)N1C[C@H](C)[C@@H](CN(C)C(=O)Nc2ccc3c(c2)OCO3)OCCCC[C@H](C)Oc2ccc(NC(=O)Nc3ccc(F)cc3)cc2C1=O
24 | -4 | 2[16.7 µM] | O=C(N[C@@H]1CC[C@@H](CCNS(=O)(=O)c2ccc(F)cc2)O[C@H]1CO)C1CCOCC1
25 | -2 | -19[16.7 µM] | C[C@@H]1CN([C@H](C)CO)C(=O)c2cc(NS(=O)(=O)c3cccs3)ccc2O[C@@H](C)CCCCO[C@@H]1CN(C)Cc1ccccc1
26 | 8 | -24[16.7 µM] | COc1ccc(CN(C)C[C@@H]2OCCCC[C@@H](C)Oc3ccc(NC(=O)Nc4ccc5c(c4)OCO5)cc3C(=O)N([C@@H](C)CO)C[C@@H]2C)cc1
27 | -2 | 18[16.7 µM] | CC(=O)N(C)C[C@@H]1Oc2cc(C#Cc3ccncc3)ccc2S(=O)(=O)N([C@@H](C)CO)C[C@H]1C
28 | 1 | 4[16.7 µM] | N#C[C@H]1[C@H](c2ccccc2)[C@H](CO)N1C(=O)CN1CCOCC1
29 | 16 | -1[16.7 µM] | Cc1noc(C)c1S(=O)(=O)Nc1ccc2c(c1)CC(=O)N([C@@H](C)CO)C[C@@H](C)[C@H](CN(C)S(=O)(=O)c1c(C)noc1C)O2
30 | 2 | -23[16.7 µM] | O=C(C[C@H]1C[C@H]2c3cc(NC(=O)Nc4ccccc4)ccc3O[C@H]2[C@H](CO)O1)NC1CCCC1
31 | -10 | -1[16.7 µM] | Cc1ccc(S(=O)(=O)N(C)C[C@H]2Oc3ccc(NS(=O)(=O)c4ccccc4)cc3CC(=O)N([C@@H](C)CO)C[C@@H]2C)cc1
32 | 27 | 3[16.7 µM] | CC(=O)N(C)C[C@@H]1Oc2cc(C#CC(C)C)ccc2S(=O)(=O)N([C@H](C)CO)C[C@H]1C
33 | 0 | 2[16.7 µM] | C[C@H](O)C#Cc1cnc2c(c1)C(=O)N([C@@H](C)CO)C[C@H](C)[C@H](CN(C)C(=O)c1ccc(F)cc1)O2
34 | -4 | -3[16.7 µM] | O=S(=O)(N[C@@H]1CC[C@@H](CCn2cc(-c3cccnc3)nn2)O[C@H]1CO)c1ccccc1
35 | -6 | -9[16.7 µM] | Cc1noc(C)c1NC(=O)N[C@H]1CC[C@@H](CCNC(=O)C2CC2)O[C@@H]1CO
36 | -27 | 1[16.7 µM] | CO[C@@H]1CN(C)C(=O)c2ccc(NC(C)=O)cc2OC[C@@H](C)N(Cc2nccs2)C[C@H]1C
37 | 1 | 5[16.7 µM] | COC(=O)C[C@H]1CC[C@@H]2[C@@H](COc3ccc(NC(=O)C4CC4)cc3C(=O)N2C)O1
38 | -8 | 16[16.7 µM] | CN1C(=O)c2cc(NC(=O)c3ccc(F)c(F)c3)ccc2OC[C@H]2O[C@H](CC(=O)O)CC[C@H]21
39 | -6 | 3[16.7 µM] | C[C@@H]1CN([C@@H](C)CO)C(=O)c2cc(NS(=O)(=O)c3cn(C)cn3)ccc2O[C@H]1CN(C)S(=O)(=O)c1ccccc1
40 | 1 | 11[16.7 µM] | O=C(C[C@H]1CC[C@H](NC(=O)c2ccccn2)[C@@H](CO)O1)NCc1cc(F)cc(F)c1

Complete entries as entered above. Order of screens: UUG fidelity	HIV Env fusion
CN1C(=O)c2cc(NC(=O)c3ccc(F)c(F)c3)ccc2OC[C@H]2O[C@H](CC(=O)O)CC[C@H]21 across the screens: -8	16[16.7 µM]
C[C@H](O)C#Cc1cnc2c(c1)C(=O)N([C@@H](C)CO)C[C@H](C)[C@H](CN(C)C(=O)c1ccc(F)cc1)O2 across the screens: 0	2[16.7 µM]

Back to the main list, repeating the six entries before the break.
item | UUG fidelity | HIV Env fusion | compound
35 | -6 | -9[16.7 µM] | Cc1noc(C)c1NC(=O)N[C@H]1CC[C@@H](CCNC(=O)C2CC2)O[C@@H]1CO
36 | -27 | 1[16.7 µM] | CO[C@@H]1CN(C)C(=O)c2ccc(NC(C)=O)cc2OC[C@@H](C)N(Cc2nccs2)C[C@H]1C
37 | 1 | 5[16.7 µM] | COC(=O)C[C@H]1CC[C@@H]2[C@@H](COc3ccc(NC(=O)C4CC4)cc3C(=O)N2C)O1
38 | -8 | 16[16.7 µM] | CN1C(=O)c2cc(NC(=O)c3ccc(F)c(F)c3)ccc2OC[C@H]2O[C@H](CC(=O)O)CC[C@H]21
39 | -6 | 3[16.7 µM] | C[C@@H]1CN([C@@H](C)CO)C(=O)c2cc(NS(=O)(=O)c3cn(C)cn3)ccc2O[C@H]1CN(C)S(=O)(=O)c1ccccc1
40 | 1 | 11[16.7 µM] | O=C(C[C@H]1CC[C@H](NC(=O)c2ccccn2)[C@@H](CO)O1)NCc1cc(F)cc(F)c1
41 | 52 | -13[16.7 µM] | O=C(CC1CC1)Nc1ccc2c(c1)[C@H]1C[C@@H](CC(=O)NC3CCCCC3)O[C@H](CO)[C@H]1O2
42 | 6 | 12[16.7 µM] | O=C(CN1CCOCC1)NCC[C@@H]1CC[C@@H](NC(=O)Cc2ccccn2)[C@@H](CO)O1
43 | 6 | -31[16.7 µM] | CC(C)C#Cc1cnc2c(c1)C(=O)N([C@@H](C)CO)C[C@H](C)[C@@H](CN(C)C(=O)CC1CC1)O2
44 | -4 | -12[16.7 µM] | COc1ccccc1S(=O)(=O)N[C@H]1C=C[C@@H](CC(=O)N2CCN(C)CC2)O[C@H]1CO
45 | -25 | -41[16.7 µM] | Cc1ccc(S(=O)(=O)Nc2ccc3c(c2)C(=O)N([C@@H](C)CO)C[C@@H](C)[C@@H](CN(C)C(=O)Nc2cccc4ccccc24)OCCCC[C@@H](C)O3)cc1
46 | 9 | -2[16.7 µM] | COc1ccc(NC(=O)Nc2ccc3c(c2)C(=O)N([C@@H](C)CO)C[C@@H](C)[C@@H](CN(C)C(=O)NC(C)C)O3)cc1
47 | 31 | -47[16.7 µM] | Cc1noc(C)c1S(=O)(=O)Nc1ccc2c(c1)C(=O)N([C@@H](C)CO)C[C@@H](C)[C@@H](CN(C)Cc1ccccc1)OCCCC[C@H](C)O2
48 | -5 | 20[16.7 µM] | C[C@@H]1CCCCO[C@@H](CN(C)S(=O)(=O)c2ccc(F)cc2)[C@@H](C)CN([C@H](C)CO)C(=O)c2cc(NC(=O)C3CCCCC3)ccc2O1
49 | 4 | 14 | COc1ccc(C(c2nnnn2-c2ccc3c(c2)OCCO3)N2CCN(C/C=C/c3ccccc3)CC2)cc1 (stereo not given)
50 | -2 | -27[16.7 µM] | CC(=O)N(C)C[C@@H]1Oc2ncc(C#CC3(O)CCCC3)cc2C(=O)N([C@@H](C)CO)C[C@@H]1C
51 | -20&-17 | -7&-5[16.7 µM] | CNC(=O)C[C@@H]1CC[C@@H]2[C@H](COc3ccc(NC(=O)c4cccc(F)c4)cc3C(=O)N2C)O1
52 | -29 | 8 | O=C(Nc1ccc(Cl)c(S(=O)(=O)N2CCCCC2)c1)c1cccnc1
53 | 1 | -24[16.7 µM] | C[C@@H]1CN([C@@H](C)CO)C(=O)c2cc(NS(=O)(=O)c3cn(C)cn3)ccc2O[C@@H]1CN(C)Cc1ccccc1
54 | 9 | 3[16.7 µM] | O=C(C[C@@H]1C[C@@H]2c3cc(NC(=O)CC4CC4)ccc3O[C@@H]2[C@@H](CO)O1)NCCc1ccccc1
55 | -5 | 9[16.7 µM] | C[C@H](CO)N1C[C@H](C)[C@@H](CN(C)Cc2ccccc2)Oc2ccc(N(C)C)cc2CC1=O
56 | 2 | -17[16.7 µM] | C[C@@H]1CN([C@@H](C)CO)C(=O)c2cc(C#CC3(O)CCCC3)cnc2O[C@@H]1CN(C)C(=O)Cc1ccccc1
57 | 3 | 6[16.7 µM] | C[C@@H]1CN([C@H](C)CO)S(=O)(=O)c2ccc(C#C[C@@H](C)O)cc2O[C@H]1CN(C)C(=O)Cc1ccccn1
58 | 8 | -8[16.7 µM] | CNC(=O)C1=C[C@H](c2csc3ccccc23)C[C@H](OCCCCO)O1
59 | 8 | -33[16.7 µM] | C[C@@H]1CN([C@H](C)CO)C(=O)c2cc(NS(=O)(=O)c3ccc(F)cc3)ccc2O[C@@H]1CN(C)S(=O)(=O)c1ccc(Cl)cc1
60 | 9 | 8[16.7 µM] | C[C@H](CO)N1C[C@H](C)[C@H](CN(C)Cc2ccccc2)OCCCC[C@H](C)Oc2ccc(NC(=O)c3ccccc3)cc2C1=O
61 | -17 | 11[16.7 µM] | Cc1noc(C)c1NC(=O)Nc1cccc2c1O[C@H](CN(C)CC1CC1)[C@@H](C)CN([C@@H](C)CO)C2=O
62 | 11 | u | COc1ccc(NC(=O)Nc2ccc3c(c2)C(=O)N([C@H](C)CO)C[C@@H](C)[C@H](CN(C)S(=O)(=O)c2cccs2)O3)cc1
63 | 0 | -9[16.7 µM] | COc1ccc(NC(=O)Nc2ccc3c(c2)C(=O)N([C@H](C)CO)C[C@H](C)[C@H](CN(C)C(=O)Nc2ccc(F)cc2)O3)cc1
64 | -11 | -19[16.7 µM] | O=C(O)C[C@@H]1CC[C@@H](NC(=O)Nc2ccccc2)[C@H](CO)O1
65 | -9 | 3[16.7 µM] | C[C@@H]1CN([C@H](C)CO)C(=O)c2cc(NC(=O)CCN3CCOCC3)ccc2O[C@@H]1CN(C)S(C)(=O)=O
66 | -3 | 8[16.7 µM] | COc1ccc(S(=O)(=O)Nc2cccc3c2O[C@@H](CN(C)Cc2ccc4c(c2)OCO4)[C@@H](C)CN([C@@H](C)CO)C3=O)cc1
67 | -1 | 15[16.7 µM] | C[C@H]1CN([C@@H](C)CO)C(=O)c2cc(C#CC3CC3)cnc2O[C@H]1CN(C)C(=O)c1ccccc1
68 | -10 | 15[16.7 µM] | CO[C@@H]1CN(C)C(=O)c2cc(NS(=O)(=O)c3ccccc3C)ccc2OC[C@H](C)N(C)C[C@@H]1C
69 | -1 | -3[16.7 µM] | CN(C)Cc1cn(CC[C@@H]2CC[C@H](NS(=O)(=O)c3ccccc3)[C@H](CO)O2)nn1
70 | -13 | -16[16.7 µM] | CS(=O)(=O)N1[C@H](C#N)[C@@H](c2ccc(C#CC3CCCCC3)cc2)[C@@H]1CO
